# Assay outcomes deposited in PubChem BioAssay by several laboratories.
# PKD1 inh: PKD1 (human) kinase inhibition; Q15139; PKD1 kinase fluorescence polarization assay; inhibition, %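 (about 10 µM by stock and volumes)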; 200,000 compounds, 0.056% hits; AID 797;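 active = inhibition of 50% or more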;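 note: controls were vehicle for no effect and a reference inhibitor for full effect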
# Target sequence (Q15139 whole entry, looked up): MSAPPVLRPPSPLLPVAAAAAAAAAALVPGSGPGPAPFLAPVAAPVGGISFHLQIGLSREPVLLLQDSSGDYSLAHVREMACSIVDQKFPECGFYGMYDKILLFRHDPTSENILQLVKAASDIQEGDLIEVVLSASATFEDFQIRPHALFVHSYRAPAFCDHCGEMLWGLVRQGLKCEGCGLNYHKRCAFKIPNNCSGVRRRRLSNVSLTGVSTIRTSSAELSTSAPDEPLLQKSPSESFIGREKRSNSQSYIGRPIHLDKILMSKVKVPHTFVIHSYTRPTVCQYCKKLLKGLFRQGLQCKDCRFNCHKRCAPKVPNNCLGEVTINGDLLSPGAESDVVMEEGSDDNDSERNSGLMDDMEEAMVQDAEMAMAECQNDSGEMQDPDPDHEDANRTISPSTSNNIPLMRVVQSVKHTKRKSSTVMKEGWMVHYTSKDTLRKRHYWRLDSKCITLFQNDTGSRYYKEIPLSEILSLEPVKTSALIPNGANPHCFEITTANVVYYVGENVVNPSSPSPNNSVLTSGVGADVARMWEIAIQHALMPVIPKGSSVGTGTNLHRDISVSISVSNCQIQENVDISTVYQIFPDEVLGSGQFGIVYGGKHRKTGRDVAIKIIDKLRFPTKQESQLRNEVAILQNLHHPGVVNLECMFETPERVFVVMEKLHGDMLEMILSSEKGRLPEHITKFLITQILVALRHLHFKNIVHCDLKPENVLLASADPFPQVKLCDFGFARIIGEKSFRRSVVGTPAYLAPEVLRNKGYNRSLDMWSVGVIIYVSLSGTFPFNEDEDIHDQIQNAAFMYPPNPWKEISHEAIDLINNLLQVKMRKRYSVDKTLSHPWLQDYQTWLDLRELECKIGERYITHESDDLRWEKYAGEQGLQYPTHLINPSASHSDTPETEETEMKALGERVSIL
# HSV augment: increases HSV replication in cells. 220,000 compounds, 0.005% hits. maximum fold increase. HSV replication augmentation in cells, fold increase;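 active = peak rise of 1.5-fold or more in the series; tested in PC3 cells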;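 note: first round at 10 µM; read as green reporter fluorescence; hits show the peak of a series up to 25 µM; 1 = signal of infected wells without compound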
# RGS16-Gao: RGS16-Galphao interaction regulator (human); AID 1441; binding response (% of control), % at 10 µM; bead-based flow cytometry RGS16-Galphao binding, fluorescence; actives lie on both sides; 220,000 compounds, 0.38% hits; O15492+P09471;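 active = below 25% or above 175%, edge rows of some plates excepted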;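 note: Galphao activated by GDP with aluminum fluoride before binding; 100% = wells without compound and 0% = beads without RGS; some results beyond the cut were filed as inactive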
# GALR2 ag: activates the human galanin receptor 2; GALR2-expressing cells, agonist activation read-out; activation, %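 (tested at 5 µM)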; 140,000 compounds, 0.48% hits;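 active = above mean plus 3 SD of all compounds, about 5% in these data, not always enough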;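 note: 0% = vehicle buffer wells and 100% = reference agonist at full effect; tested in CHO reporter cells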
# INS promoter inh: TRM-6 insulin promoter activity inhibition. TRM-6 cells (human fetal islet line), insulin promoter-eGFP reporter, imaging; reporter expression induced with tamoxifen. 130,000 compounds, 0.9% hits. AID 1273. inhibition, % at 2 µM;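 active = inhibition above the mean plus 3 SD, with well images judged a real hit on visual review, cut at about 60% in these data, passing the limit was not always enough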
# INS promoter inh cell count: second read-out of INS promoter inh, no call of its own (marks repeat the call); normalized cell count, %; measured here: cell count, toxicity; reference of the scale not given here;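 cells exposed to compound for 48 h; stained nuclei by imaging scaled within each plate; lower means fewer cells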
# HSV augment primary fold: further read-out of HSV augment, marked with its call; fold increase; compound at 10 µM; measured here: primary screen fold increase 10 uM; tested in PC3 cells;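 GFP signal in the first replicate; 1 = infected wells without compound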
# The depositor's hits bear a star; i = inactive; / = no result given.
# Under each structure: PKD1 inh, HSV augment, HSV augment primary fold, RGS16-Gao, GALR2 ag, INS promoter inh, INS promoter inh cell count
1) CC(C)C(=O)Nc1csc(C(F)(F)F)c1-c1ccccc1
→ /, i, 1.1, 103, /, /, /
2) CCN(CC)CCNC(=O)c1c(O)c2cc(OC)c(OC)cc2[nH]c1=O
→ -12, /, /, 92, -0.5, 30, 128
3) CCOc1ccc(-n2nc(C(=O)NCCOC)c3ccccc3c2=O)cc1
→ -13, i, 0.87, 108, -1.7, 23, 101
4) Cc1cc(OC(=O)c2ccc(Cl)cc2Cl)nc(C)n1
→ -1, i, 0.95, 109, -2.8, 15, 111
5) CCOC(=O)C(CC)(CC)/C(C)=N/NC(=O)CC#N
→ 5, i, 0.97, 109, -0.3, 21, 118
6) CCOC(=O)N1CCN(Cc2nc3c(c(=O)n(C)c(=O)n3C)n2Cc2cccc(C)c2)CC1
→ 8, i, 0.99, 104, -2.5, /, /
7) CCOC(=O)CCCc1ccc(/C(C)=N/NC(=S)NC)cc1
→ /, i, 1, 99, /, /, /
8) COc1cc(/C=N/NC(=O)COc2ccc(-n3cnnn3)cc2)ccc1OCC(N)=O
→ /, i, 1.2, 99, /, /, /
9) N#Cc1cc(NC2CCCC2)c([N+](=O)[O-])cc1C#N
→ -11, i, 0.93, 103, -1.9, -22, 100
10) Cc1cc(F)ccc1NC(=O)C1CCCO1 (centres undefined)
→ -1, i, 0.89, 105, /, /, /
11) COc1ccc(C(=O)COC(=O)c2cccnc2SC)cc1
→ 5, i, 0.99, 103, /, 11, 113
12) Cc1ccc(C(=O)Nc2nc(-c3cc(Cl)sc3Cl)cs2)cc1
→ -2, i, 0.79, 71, -0.7, -7, 109
13) CCCCN(C(=O)CNC(=O)c1ccco1)C(C(=O)NC1CCCCC1)c1ccc(OC)cc1OC (centres undefined)
→ 10, i, 1, 102, -2.6, /, /
14) Cc1oc(-c2ccc(Cl)cc2)cc1C(=O)NC1CCN(Cc2ccccc2)CC1
→ /, i, 0.79, 103, /, /, /
15) Cc1ccc(C(=O)O/N=C/c2ccc(N(C)C)cc2)cc1
→ -1, i, 0.96, 101, /, /, /
16) C/C(=N\NC(=O)CC#N)c1ccc(Oc2ccccc2)cc1
→ 1, i, 1, 99, /, /, /
17) COCc1cc(/C=N\NC(=O)Cc2ccc(Cl)cc2)ccc1OC
→ -4, i, 1, 105, -0.2, -52, 73
18) FCCCOc1ccc(-c2ccnc(-c3ccccc3)n2)cc1
→ 6, i, 1, 108, -4.1, -27, 66
19) C=CCOc1nc(N(C)C)nc(N(C)C)n1
→ 7, i, 0.91, 91, -1.6, 46, 111
20) CN(C1CCCCC1)S(=O)(=O)c1ccc(-n2cnnn2)cc1
→ -2, i, 0.86, 99, -3.4, -15, 98
21) C/C(=N\NC(=O)CN(c1ccccc1)S(C)(=O)=O)c1ccccc1O
→ -2, i, 0.99, 97, /, /, /
22) Cc1ccc(CN2CCN(Cc3ccc(O)cc3)CC2CCO)o1 (centres undefined)
→ 0, i, 0.97, 105, /, /, /
23) COc1c(C(=O)NNC(=O)c2ccccc2Cl)csc1Br
→ /, i, 0.97, 101, /, /, /
24) O=C(N/N=C1\CCCc2ccccc21)c1ccccc1Cl
→ -3, i, 0.99, 100, /, /, /
25) COc1cccc(/C=N/N2CCN(c3ccccc3OC)CC2)c1
→ -4, i, 0.89, 99, -3.6, -63, 78
26) Cc1ccc2c(c1)c(CC(=O)Nc1ccc(C)c(F)c1)c(C(=O)O)n2C
→ -1, i, 1, 104, 1.7, 0, 124
27) COc1cccc(C(=O)Cn2c(Br)nc3c2c(=O)n(C)c(=O)n3C)c1
→ -4, i, 1.1, 98, -0.7, -68, 84
28) Cc1cc(C)nc(NC(=O)c2cnc3sccn3c2=O)n1
→ -4, i, 0.94, 80, -0.3, /, /
29) O=C(NN1C(=O)C2C3c4ccccc4C(c4ccccc43)C2C1=O)c1ccc(Cl)cc1 (centres undefined)
→ -16, i, 1.1, 92, 0.3, 11, 106
30) CCCC(C)NNC(=O)c1cc2ccccc2[nH]1 (centres undefined)
→ -4, i, 0.95, 95, -1.6, 43, 123

# Structural class: the entries above containing a cyano group
# Under each structure: PKD1 inh, HSV augment, HSV augment primary fold, RGS16-Gao, GALR2 ag, INS promoter inh, INS promoter inh cell count
5) CCOC(=O)C(CC)(CC)/C(C)=N/NC(=O)CC#N
→ 5, i, 0.97, 109, -0.3, 21, 118
9) N#Cc1cc(NC2CCCC2)c([N+](=O)[O-])cc1C#N
→ -11, i, 0.93, 103, -1.9, -22, 100
16) C/C(=N\NC(=O)CC#N)c1ccc(Oc2ccccc2)cc1
→ 1, i, 1, 99, /, /, /

# The listing continues.
# Under each structure: PKD1 inh, HSV augment, HSV augment primary fold, RGS16-Gao, GALR2 ag, INS promoter inh, INS promoter inh cell count
31) O=C(c1ccco1)N1CCc2ccccc21
→ -1, i, 1, 102, /, -12, 123
32) C=CCSC1=NC(=O)/C(=C/c2cccs2)S1
→ -9, /, /, 104, -0.6, 8, 135
33) CCOC(=O)/C(C#N)=C/c1ccc(OCC(=O)Nc2ccc(C)c(C)c2)c(OC)c1
→ 3, i, 1, 111, -0.4, 11, 110
34) CCOC(=O)C1CCCN(S(=O)(=O)c2ccc(NC(C)=O)cc2)C1 (centres undefined)
→ -6, i, 0.97, 124, /, /, /
35) O=C(Nc1c2c(nc3ccccc13)CCCC2)c1ccccc1F
→ -3, i, 0.94, 101, -1.6, 64*, 56*
36) COc1ccccc1OCCC(=O)O
→ 2, i, 0.96, 102, /, /, /
37) CCOC(=O)CN1C(=O)C(O)(CC(=O)c2ccc3c(c2)CCCC3)c2ccccc21 (centres undefined)
→ 6, i, 1, 130, -0.8, -138, 91
38) O=C(CC1SC(=O)N(Cc2ccccc2)C1=O)Nc1nccs1 (centres undefined)
→ 4, i, 1, 102, -0.6, /, /
39) Cc1ccc(OC2=NS(=O)(=O)c3ccccc32)cc1
→ -1, i, 0.71, 100, 0.3, 46, 136
40) COc1cc(C)c(C(=O)Oc2cc(C)c(C(=O)O)c(O)c2)c(O)c1
→ /, i, 0.68, 104, /, /, /
41) CC(=O)N1CCN(c2nc3cc4c(cc3nc2NS(=O)(=O)c2ccccc2)OCCO4)CC1
→ -20, i, 1.1, 95, 1.1, /, /
42) FC(F)(F)c1nnc2ccc(N3CCCC3)nn12
→ -1, i, 1.1, 106, -0.1, 35, 85
43) Cc1ccccc1NC(=O)C1CC(=O)n2ncnc2N1 (centres undefined)
→ /, i, 1, 104, /, /, /
44) Clc1ccc(-c2csc3ncnc(Cl)c23)cc1
→ 3, i, 0.98, 104, -0.7, 27, 156
45) CCOC(=O)CSc1ccc2nnc(-c3ccncc3)n2n1
→ -5, i, 0.77, 95, -4.1, /, /

# 2 compounds drawn at random from the list so far:
# Under each structure: PKD1 inh, HSV augment, HSV augment primary fold, RGS16-Gao, GALR2 ag, INS promoter inh, INS promoter inh cell count
43) Cc1ccccc1NC(=O)C1CC(=O)n2ncnc2N1 (centres undefined)
→ /, i, 1, 104, /, /, /
10) Cc1cc(F)ccc1NC(=O)C1CCCO1 (centres undefined)
→ -1, i, 0.89, 105, /, /, /

# More compounds:
# Under each structure: PKD1 inh, HSV augment, HSV augment primary fold, RGS16-Gao, GALR2 ag, INS promoter inh, INS promoter inh cell count
46) Cc1cc(C(=O)Nc2ccc3[nH]ccc3c2)no1
→ /, i, 1, 95, /, /, /
47) O=C(CSc1ncn[nH]1)NN(c1ccccc1)c1ccccc1
→ -6, i, 1.1, 133, -1.9, 16, 96
48) COc1cc(CO)cc(Br)c1OCc1cccnc1
→ -2, i, 1, 98, -1.4, -19, 132
49) C/C(=C\C(=O)c1ccc(Cl)cc1)Nc1ccc(Br)cc1
→ -1, i, 0.95, /, -1.0, -22, 92
50) Cc1ccc(O)c(C2=NOC(O)(C(F)(F)F)C2)c1 (centres undefined)
→ -9, i, 1, 81, -3.0, -20, 94
51) Cc1ccc(F)cc1NC(=O)c1cccc2nccnc12
→ -1, i, 1, 101, -1.9, -38, 100
52) CCC(C)N(CCNC(=O)CC1Oc2ccccc2NC1=O)C1CCCCC1 (centres undefined)
→ 12, i, 1.2, 102, -1.3, /, /
53) Clc1ccc(-c2noc(/C=C/c3ccccc3)n2)cc1
→ /, i, 0.98, 95, /, /, /
54) Cn1nc(C(=O)NCc2ccco2)c2ccccc2c1=O
→ 0, i, 1.1, 70, -2.4, 62*, 88*
55) COCCNC(=S)N/N=C1\CC(C)CC(C)(C)C1 (centres undefined)
→ 0, i, 0.99, 106, /, 25, 169
56) COc1ccc(-c2csc3ncn(-c4ccccc4OC)c(=O)c23)cc1OC
→ -8, /, /, 97, /, -69, 128
57) CCOc1cc2[nH]c(=S)n(CCCN3CCOCC3)c(=O)c2cc1OCC
→ 1, i, 0.72, 101, -0.2, 22, 58
58) CCOC(=O)c1c(C)[nH]c(C=C2C(=O)CCCC2=O)c1O
→ -3, i, 1, 96, -0.6, 20, 101
59) CN1N=C(c2ccc(Cl)cc2)CC(c2ccc(Cl)cc2)C1=O (centres undefined)
→ -3, i, 1.1, 101, /, /, /
60) COc1cc(C(=O)N2C(=O)c3cccc(N)c3C2=O)cc(OC)c1OC
→ -3, i, 1, 101, /, 44, 94

# Results in sequence from above.
# Entries 56 to 60 in INS promoter inh cell count read 128, 58, 101, /, 94
# Entries 56 to 60 in PKD1 inh read -8, 1, -3, -3, -3
# Entries 56 to 60 in INS promoter inh read -69, 22, 20, /, 44

# (continued)
no.	Structure	PKD1 inh	HSV augment	HSV augment primary fold	RGS16-Gao	GALR2 ag	INS promoter inh	INS promoter inh cell count
61	COC(=O)CSc1nnc(CNC(=O)Cc2ccccc2)n1-c1ccccc1OC	-5	i	0.97	98	0.2	/	/
62	CCOc1ccccc1C1CC(=O)NC2=C1C(=O)CCC2 (centres undefined)	-5	i	0.65	102	-0.2	/	/
63	CCOC(=O)CNC(=S)N(Cc1ccccc1)Cc1ccccc1F	0	i	0.98	110	/	20	98
64	N/C(=N\OC(=O)C1CCCCC1)c1cccc([N+](=O)[O-])c1	-12	i	0.93	102	-1.0	23	103
65	O=S(=O)(NCc1ccco1)c1ccc(S(=O)(=O)N2CCCC2)cc1	-3	i	0.92	94	/	-73	94
66	CC1(C)Cc2c(c(=S)nc(-c3ccccc3)n2CCO)CO1	-6	i	0.94	106	-1.6	-23	118
67	CC1(C)CC(=O)c2sc(NC(=O)C3CC3)nc2C1	-7	i	0.87	97	-2.4	/	/
68	O=C(CN1CCN(Cc2cccc(Cl)c2)C1=O)NCc1cccs1	-16	i	1.2	101	/	-67	121
69	Cn1c(N)c(C(=O)COC(=O)c2ccccn2)c(=O)n(C)c1=O	-15	i	1.1	95	/	/	/
70	CC(C)C(=O)c1cn(CC(=O)O)c2ccccc12	15	i	1.1	92	/	/	/
71	O=C1CC(c2ccc(Cl)c(Cl)c2)CC(O)=C1C=NCCN1CCNCC1 (centres undefined)	-5	i	0.98	101	-2.7	/	/
72	Cc1nn(CCc2n[nH]c(=S)n2-c2ccc(F)c(Cl)c2)c(C)c1[N+](=O)[O-]	5	i	0.99	104	-2.3	-29	112
73	O=C(CSc1nnc(-c2ccc(Cl)cc2)n1-c1ccc(Cl)cc1)N/N=C/c1ccccc1C(=O)O	/	i	1.1	103	/	/	/
74	O=C(N/N=C\c1cccc(F)c1)c1ccc(Cn2cc(Br)c([N+](=O)[O-])n2)o1	4	i	0.86	105	/	/	/
75	CC(C)Oc1ccc(C2CC(=O)N(c3cccc(Br)c3)C2=O)cc1 (centres undefined)	/	i	0.88	99	/	/	/
76	Cc1cccc(OCCOCCN2CCOCC2)c1C	10	i	1.1	151	-0.1	36	137
77	S=c1[nH]nc(-c2cccnc2)n1/N=C/c1ccccc1	/	i	0.96	100	/	/	/
78	O=C(Nc1ccccc1)OCc1cncs1	3	i	0.97	92	/	-6	104
79	Cc1c(C(=O)NCc2ccccc2)oc2ccc(S(=O)(=O)N3CCC4(CC3)OCCO4)cc12	2	i	0.88	103	0.3	8	133
80	O=C(O)C1C(C(=O)Nc2ccc(Cl)cc2)C2C=CC1C21CC1 (centres undefined)	5	i	0.65	104	-0.2	-4	76
81	Cc1cc(C)cc(NC(=O)N2CCC(NC(=O)c3ccccc3C)CC2)c1	-10	i	1	112	-0.8	-7	92
82	O=S(=O)(c1ccc(NC(=S)N2CCN(c3ccc(O)cc3)CC2)cc1)N1CCOCC1	1	i	0.58	83	/	-13	151
83	Cc1cccc(NC(=O)Cn2c([N+](=O)[O-])cnc2C)c1C	-1	i	0.98	109	-2.3	39	149

# Quoted from the results shown, 2 compounds:
no.	Structure	PKD1 inh	HSV augment	HSV augment primary fold	RGS16-Gao	GALR2 ag	INS promoter inh	INS promoter inh cell count
82	O=S(=O)(c1ccc(NC(=S)N2CCN(c3ccc(O)cc3)CC2)cc1)N1CCOCC1	1	i	0.58	83	/	-13	151
83	Cc1cccc(NC(=O)Cn2c([N+](=O)[O-])cnc2C)c1C	-1	i	0.98	109	-2.3	39	149
